Screens from PubChem BioAssay.
VACV mCherry inh = qHTS for Stage-Specific Inhibitors of Vaccinia Orthopoxvirus: mCherry Reporter Primary qHTS | Vaccinia virus mCherry reporter infection, fluorescence; about a quarter of the inactives have no number | Potency, µM (doses to about 36.5 µM), for inactives: at the highest dose activity change, negative = inhibition, usual class: inhibitors | actives 0.63% (n = 310,000); active = well fitted inhibition curve with a large enough effect; inconclusive = small, poorly fitted or top-dose-only effect; inactive = no such curve, though single readings can be large or run the other way; tested in A549 cells; note: nearly all actives have a fitted effect of over 35% in size; inactives centre near -10
Vaccinia Venus = qHTS for Stage-Specific Inhibitors of Vaccinia Orthopoxvirus: Venus Reporter Primary qHTS | Potency, µM (titrated, usually from 36.5 µM), inactives show at the top dose activity change, negative = inhibition, most hits filed as inhibitors | Vaccinia virus Venus reporter expression, fluorescence | actives 0.46% (n = 330,000); active means well fitted inhibition curve with a large enough effect; inconclusive means small, poorly fitted or top-dose-only effect; inactive means no such curve, though single readings can be large or run the other way; tested in A549 cells; note: nearly all actives have a fitted effect of over 30% in size; inactives centre near -10
Starred values were filed as active, the others as inactive; i = inactive; ? = inconclusive; nt = not tested or not shown; & = joins results of further samples; [ ] = remark or other dose. % is set by controls: 0 for no effect and ±100 for the full control effect; potency is the fitted concentration of half-maximal effect.

Structure	VACV mCherry inh	Vaccinia Venus
Cc1cccc(C)c1N1C(=O)[C@@H]2C(c3ccccc3Cl)=NO[C@@H]2C1=O	-6.7%	-7.9%
CCOC(=O)Cn1c(=O)n(C2CCCCC2)c2nc(-c3ccc(C(C)C)cc3)nc(C(N)=O)c21	-17.9%	-16.7%
COc1cccc(C(=O)C2CCCN(Cc3cccn3-c3cccnc3)C2)c1 (stereo not drawn)	0.0%	-11.0%
Cc1nc(C(F)(F)F)ccc1C(=O)Nc1ccc(C(F)(F)F)cn1	i	2.3%
COC1=C(OC)[C@]23CCc4ccc(OC)c(OC)c4[C@]2(CCN3C)CC1=O	-11.7%	-12.6%
O=[N+]([O-])c1ccccc1CNCCO	-18.6%	-4.6%
O=C(CNc1ccc(Br)cc1)NNC1=NCCC1	-14.6%	-4.5%
O=C(Nc1c2c(nn1-c1ccccc1)CS(=O)(=O)C2)C1CC1	i	-4.1%
CCOC(=O)c1ccc(CN(Cc2ccc(F)cc2)S(=O)(=O)c2ccc(F)c(C(=O)Nc3c(C)cccc3C)c2)cc1	-10.0%	-19.6%
O=C(O)c1cc(-c2ccccc2)c(N2CCOCC2)s1	-16.8%	-9.1%
OC1(C#Cc2c(-c3ccsc3)oc3ccc(N4CCOCC4)cc23)CCCCC1	?	?
C[C@H](CO)N1C[C@H](C)[C@@H](CN(C)C(=O)Nc2ccc3c(c2)OCO3)Oc2c(NC(=O)Nc3ccc4c(c3)OCO4)cccc2C1=O	3.1%	-7.9%
CCCOC(=O)CN1C(=O)c2ccccc2C1=O	nt	-9.7%
COc1ccc(C(=O)NNC(=S)NC2CCCCC2)cc1OC	-14.2%	-6.2%
Cc1c(NC(=O)CSc2nnnn2-c2ccc(C(=O)O)cc2)c(=O)n(-c2ccccc2)n1C	11.7%	-2.4%
CCOC(=O)C1=C(CSc2nc3c(cc2C#N)CN(C)CC3)OC(N)=C(C#N)C1c1ccc(F)cc1 (stereo not drawn)	nt	-20.5%
CCOc1ccc(/C=N/NC(=O)c2nnn(-c3nonc3N)c2COc2ccc(F)cc2)cc1	-13.7%	-11.5%
COc1ccc(C(CNC(=O)c2cccc(S(=O)(=O)N3CCOCC3)c2)N2CCOCC2)cc1 (stereo not drawn)	i	-6.7%
O=C1NC[C@@H](CCCCN2C[C@H](Cc3ccccc3)N(CCc3ccc(O)cc3)C(=O)C2=O)N(CCc2ccccc2)C1=O	9.5%	0.9%
COc1ccc(-c2cc(C(F)(F)F)nc(SCCC(=O)Nc3ccc(O)cc3)n2)cc1	-2.6%	-7.5%
CCOc1ccc(-c2nnc(SCC(=O)Nc3cc(C)ccc3OC)o2)cc1	-29.8%	-13.2%
CCCCc1ccc(NC(=O)NCc2ccccn2)cc1	i	-19.9%
C1=C(c2ccc3c(c2)CN(Cc2cccn2-c2ncccn2)CCO3)Cc2ccccc21	-11.3%	-4.5%
COc1ccc(C(=O)N/C(=C\c2ccccc2)C(=O)NC(CC(C)C)C(=O)O)cc1 (stereo not drawn)	i	-2.4%
CCC(=O)N1CCc2cc(Br)cc(S(=O)(=O)N3CCCCCC3)c21	-18.6%	-9.4%
C[C@H]1CN([C@@H](C)CO)C(=O)CCCn2nncc2CO[C@@H]1CN(C)S(=O)(=O)c1ccc(Oc2ccccc2)nc1	-13.9%	-8.6%
O=c1[nH]c(CSc2ccccn2)nc2c1cnn2-c1ccccc1	i	-11.8%
CCCc1nnc(NC(=O)CCC(=O)N2CCN(C3c4ccccc4-c4ccccc43)CC2)s1	i	-9.4%
O=C(CSc1ncnc2c1oc1ccccc12)Nc1nc2ccccc2s1	i	?
CCCN1C(C(=O)c2ccccc2)=C(OC(=O)COc2ccccc2)c2ccccc2S1(=O)=O	?	?
O=C(Cc1cccc([N+](=O)[O-])c1)Nc1ccc(C(=O)N2CCOCC2)cc1	-18.9%	-3.7%
FC(F)(F)c1cccc(-c2ccc(-c3csnn3)o2)c1	-17.8%	-13.5%
COC(=O)C[C@@H]1CC[C@@H](NC(=O)NC2CCCC2)[C@@H](CO)O1	-9.4%	-14.4%
CCOc1cc(/C=N/NC(=O)c2cc(-c3cccc(OC)c3)nc3ccccc23)ccc1O	?	3.1%
Cc1cccc(N(C(=O)c2snc(C(N)=O)c2N)C(C(=O)NCC2CCCO2)c2c[nH]c3ccccc23)c1 (stereo not drawn)	i	-17.9%
COc1ccc2c(c1)C(C)CC(C)(C)N2C(=O)CSc1ncn[nH]1 (stereo not drawn)	nt	-7.8%
Cc1ccc(NC(=O)C(=O)NCC(c2ccc3c(c2)OCO3)N2CCOCC2)c(C)c1 (stereo not drawn)	-13.6%	-9.5%
O=C1C=C(c2ccc(Oc3ccccc3)cc2)C[C@@H](c2ccc(F)cc2)C1	?	-13.3%
CCOc1ncccc1C(=O)OCC(=O)NCCCc1ccccc1	-16.4%	-9.9%
CN(C)CCN[C@H]1CCC2C3CC=C4C[C@@H](O)CC[C@]4(C)C3CC[C@@]21C (stereo partly drawn)	i	-19.1%
O=C(NN=Cc1ccccc1O)NN=Cc1ccccc1O	?	-18.0%
CCC(C)NC(=O)C1CCN(S(=O)(=O)CC)CC1 (stereo not drawn)	i	-10.3%
CC(C)[C@H](NC(=O)[C@@H]1CSC2c3ccccc3C(=O)N21)C(=O)NCc1ccco1 (stereo partly drawn)	-15.5%	-6.7%
O=C(CCSc1ccc(Cl)cc1)NCc1ccncc1	-27.1%	-4.4%
CCn1c(COc2cccc3cccnc23)nnc1SC(F)F	-16.7%	-9.3%
COc1ccc(C(=O)NCc2csc(C)n2)cc1OC1CCN(C(C)=O)CC1	-2.7%	-9.0%
CC[C@]12c3[nH]c4cc(-c5ccco5)ccc4c3CCN1C(=O)[C@@H](CC(=O)NCCC1=CCCCC1)C[C@@H]2C(=O)N1CCN(C(=O)c2ccco2)CC1	?	?
Oc1ccccc1-c1cc(-c2ccccc2Cl)[nH]n1	?	?
Nc1ccnc2c1ncn2[C@@H]1O[C@H](CO)[C@@H](O)[C@H]1O	?	?
O=C(NCCn1cc(SCc2ccc(F)cc2)c2ccccc21)c1c(F)cccc1F	-12.6%	-9.6%&-7.9%
COc1ccc2c(c1)CC1c3c(cc4c(c3-2)OCO4)CC[N+]1(C)[O-] (stereo not drawn)	?	1.4%
Cc1ccc(C(=O)N/C(=C/c2cccnc2)C(=O)N2CCCCCC2)cc1	-9.0%	-7.5%
CCC(=O)Nc1nc(C)c(Oc2ccccc2)c(=O)[nH]1	nt	-8.9%
COc1ccc(CN2CCCCC2C(=O)Nc2ccc(OC)c(OCC(C)C)c2)cc1OC (stereo not drawn)	i	-7.8%
NS(=O)(=O)c1ccc(NC(=O)N2c3ccccc3Sc3ccccc32)cc1	-28.0%	-23.2%
CN1CC(C(=O)Nc2ccc(F)c(Cl)c2)CC1=O (stereo not drawn)	i	-0.8%
CS(=O)(=O)Nc1ccc(C(=O)N2CC(=O)Nc3ccccc32)cc1	-2.6%	-16.0%
CCC(=O)O[C@@H]1[C@@H](OC(C)=O)[C@@]2(O)C(C[C@H](O)C2(C)C)[C@](C)(O)[C@H]2CC[C@@H]3[C@@H](O)[C@]12C[C@@]3(C)O (stereo partly drawn)	i	-19.6%
COc1ccc(-n2c(=S)[nH]c(=O)c3cccnc32)cc1	-17.9%	-8.3%
Cc1ccc2nc(SCC(=O)NCCc3ccccc3)nc(=O)n2c1	i	-17.6%

The list continues:
Structure	VACV mCherry inh	Vaccinia Venus
Cc1ccc(-c2nnc(Nc3ccc(O)cc3)c3ccccc23)cc1S(=O)(=O)N1CCCCC1	?	?
COc1ccc(S(=O)(=O)NCc2ccncc2)cc1NC(=O)c1ccccc1	-12.7%	-28.6%
Cn1cnc([N+](=O)[O-])c1Oc1ccc2ccccc2c1	6.31µM*	7.94µM*
CC(C)c1nnc(SCC(=O)NC2CCCCC2)n1C	i	-4.6%
COc1cc(C(=O)OCCNC(=O)c2ccccc2)cc(OC)c1OC	i	-22.2%
COc1ccccc1C1CN(Cc2cnn(C)c2C)Cc2ccccc2O1 (stereo not drawn)	-18.3%	-0.6%
O=c1c(-c2ccccc2Cl)c[nH]n1-c1ccccc1	-0.9%	-16.7%
C[C@@H]1C[C@@H]2O[C@H]2/C=C\C=C\C(=O)Cc2c(Cl)c(O)cc(O)c2C(=O)O1	?	?
Cc1csc(NC(=O)c2cc([N+](=O)[O-])cc([N+](=O)[O-])c2)n1	-16.0%	-6.6%
CCCn1c(SCC(N)=O)nc2c(c1=O)C1(CCCC1)Cc1ccccc1-2	-27.0%	-16.9%
O=C(NCC1CCN(C(=O)c2cccc([N+](=O)[O-])c2)CC1)c1cccc([N+](=O)[O-])c1	6.8%	-0.7%
CCN1C(=O)c2ccccc2S(=O)(=O)c2ccc(C(=O)NCCOC)cc21	-22.6%	-4.8%
Cn1ccc2c(-c3ccc(C(F)(F)F)cc3)cc3c(c21)C1CCC3O1 (stereo not drawn)	i	-1.3%
C/C(Cc1ccccc1)=N\NC(=O)CNC(=O)c1cccc(Cl)c1	3.2%[7.34 µM]	-27.2%[7.34 µM]
O=c1c2ccccc2oc2nc(-c3ccco3)n(-c3ccccc3)c(=O)c12	i	-2.5%
CCC(CC)NC(=O)COC(=O)c1ccc(NS(=O)(=O)c2ccc3c(c2)OCCO3)cc1	-16.5%	-17.2%
CCCC(C)C(=O)Nc1ccc2c(c1)OCCO2 (stereo not drawn)	nt	-12.6%
Cc1ccc(S(=O)(=O)N(C)CC(=O)NC2CC(C)(C)NC(C)(C)C2)cc1	-5.8%	-4.1%
CCNc1nc(NCC)n2c(SCC(=O)Nc3ccc(C)cc3Br)nnc2n1	i	-4.1%
COc1ccc(OCC(=O)Nn2c(-c3ccc(C)cc3)nc3ccccc3c2=O)cc1	-14.7%	-3.4%
O=C1CN(S(=O)(=O)c2ccc(Cl)cc2)c2ccccc2N1	-0.3%	-7.9%
CC(=O)Nc1nonc1-c1nnc(SCC(=O)Nc2ccccc2Cl)n1C	4.5%	-9.0%
CCNc1ccc(S(=O)(=O)N(C)C)cc1NCC(=O)Nc1ccc(Br)cc1F	-8.2%	-20.0%
CC(O)CNc1ncnc2cc(-c3ccc(F)cc3)sc12 (stereo not drawn)	-29.7%	-18.4%
O=C1CN(C(=O)c2ccc(F)c(S(=O)(=O)N3CCOCC3)c2)c2ccccc2N1	-3.4%	-3.8%
CC(=O)c1cccc(-n2nnnc2SCC(=O)N2CCCC2)c1	i	-6.1%
Cc1cccc(C)c1Nc1c(-c2ccsc2)nc2cccc(C)n12	-8.6%	-14.1%
COc1cc(C(N)=O)cc(Br)c1OCc1ccccc1	i	-6.7%
CCC(=O)N1CCc2cc(Br)cc(S(=O)(=O)N3CCN(c4ccc(C(C)=O)cc4)CC3)c21	-8.3%[7.34 µM]	-6.5%[7.34 µM]
CN(Cc1ccc(Cl)c(Cl)c1)C(=O)c1[nH]c(C(F)(F)F)nc1-c1ccccc1	-14.5%	-12.0%
COc1ccc(/C=C/C(=O)N2CCN(S(=O)(=O)c3ccccc3)CC2)cc1OC	i	-9.0%
COc1ccc(S(=O)(=O)NCc2cccnc2)c(Cl)c1Cl	-26.7%	-18.8%
Cc1ccc2c(c1)Cc1c(nc(-c3ccc(F)cc3)nc1SCC(=O)N1CCCCC1)O2	-13.2%	-11.9%
O=C(OCc1cccc([N+](=O)[O-])c1)c1ccc2ccccc2n1	2.3%	-5.0%
O=C(NCc1cccnc1)c1cc(Sc2cccc(Cl)c2)nc2ccccc12	i	-16.4%
CCN(CC)S(=O)(=O)c1ccc(NC(=O)CC(NC(C)=O)c2ccccc2)cc1 (stereo not drawn)	-8.6%	-14.2%
Cc1c(OCc2ccc(C(=O)O)o2)ccc2c3c(c(=O)oc12)CCC3	-9.1%	-6.3%
CC1(C)CC(=O)c2c(O)cc(OCc3ccc([N+](=O)[O-])cc3)cc2O1	-18.1%	-10.0%
COC1=CC(=O)C(OC)=C(OC)C1=O	?	-29.3%
COc1ccc(-n2ccnc2SCC(=O)NCc2ccccc2)c(OC)c1	i	-0.6%
COc1ccc(CCNC(=O)C2CCN(C(=O)c3ccc(Br)cc3)CC2)cc1	-18.4%	-8.4%
COc1ccc(C(=O)N2CCN(S(=O)(=O)c3ccc(C)cc3C)CC2)cc1OC	i	-16.5%
CS(=O)(=O)c1ccc2nc(NC3(C(F)(F)F)N=C4SCCN4C3=O)sc2c1 (stereo not drawn)	-4.5%	-12.9%

Structural class: the compounds so far with a COOH group
Structure	VACV mCherry inh	Vaccinia Venus
O=C(O)c1cc(-c2ccccc2)c(N2CCOCC2)s1	-16.8%	-9.1%
Cc1c(NC(=O)CSc2nnnn2-c2ccc(C(=O)O)cc2)c(=O)n(-c2ccccc2)n1C	11.7%	-2.4%
COc1ccc(C(=O)N/C(=C\c2ccccc2)C(=O)NC(CC(C)C)C(=O)O)cc1 (stereo not drawn)	i	-2.4%
Cc1c(OCc2ccc(C(=O)O)o2)ccc2c3c(c(=O)oc12)CCC3	-9.1%	-6.3%
